A1 inh: inhibitors of the anti-apoptotic protein A1, read as caspase activation. MEF A1-2A-BIM cells, Caspase-Glo 3/7 luminescence, 3 h; percent of clofoctol response, vehicle zero. caspase activation, % (test concentration not listed). 330,000 compounds, 0.066% hits. AID 2462;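 active = over half of replicate activation scores above 10%, or exactly half above 10 with the replicate mean above 10; inconclusive = replicate mean below 10 yet half the replicates above 10; inactive = over half of replicates below 10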;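 note: wells of about 30 µL received 50 nL stock; many hits fall short of the cut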
Calb FLC: affects C. albicans growth with fluconazole; C. albicans CaCi-2 (fluconazole-resistant clinical isolate) + fluconazole, Alamar Blue growth, 48 h; growth inhibition, % (concentration not given with the values); 300,000 compounds, 0.57% hits; AID 1979;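 active = most replicates above 75%; inconclusive = exactly half above 75%; inactive = most below 75%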;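 note: all wells also contain fluconazole at 8 µg/ml as a sub-toxic cotreatment; 0% = median of DMSO wells and 100% = median of geldanamycin control wells; wells of about 8 µL received 7.5 nL stock; the first replicate is given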
MLL AF4-AF9 inh: inhibitors of human MLL-AF4/AF9 interaction; P42568; AlphaScreen, biotin-AF4 peptide binding to FLAG-AF9; inhibition, % at 10 µM; 350,000 compounds, 0.47% hits;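 active = every replicate reaching a set inhibition limit, whatever the replicate mean, cut at about 25% in these data; inconclusive = mean inhibition reaches that limit but some replicates miss it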;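 note: 0% = plate neutral control median and 100% = total signal loss; the record names both 10 and 1 µM as test concentration; the first replicate is given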
Target sequence (P42568 whole entry, looked up): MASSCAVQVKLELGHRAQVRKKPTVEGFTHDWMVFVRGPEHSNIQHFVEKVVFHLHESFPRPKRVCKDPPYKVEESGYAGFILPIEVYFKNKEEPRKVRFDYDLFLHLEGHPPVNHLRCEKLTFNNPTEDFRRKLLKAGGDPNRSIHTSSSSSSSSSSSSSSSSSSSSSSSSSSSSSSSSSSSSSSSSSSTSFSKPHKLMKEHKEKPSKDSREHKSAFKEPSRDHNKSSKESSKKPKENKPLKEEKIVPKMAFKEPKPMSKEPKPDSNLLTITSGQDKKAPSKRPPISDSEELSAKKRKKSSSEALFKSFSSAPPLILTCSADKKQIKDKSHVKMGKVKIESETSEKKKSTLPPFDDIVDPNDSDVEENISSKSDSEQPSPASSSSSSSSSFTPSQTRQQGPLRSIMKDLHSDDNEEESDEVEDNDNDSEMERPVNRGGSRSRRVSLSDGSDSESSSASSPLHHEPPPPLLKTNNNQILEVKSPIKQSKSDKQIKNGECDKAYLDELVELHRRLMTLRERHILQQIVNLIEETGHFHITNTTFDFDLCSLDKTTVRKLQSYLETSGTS
Beta cell apopt: blocks beta cell apoptosis | INS-1E cytokine-induced death, ATP luminescence, 48 h; percent of positive-control rescue, neutral wells zero | protection from apoptosis, % (test concentration not listed) | 300,000 compounds, 0.8% hits | AID 435005;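 active = all replicates at 75% or more, or half of them and the mean; inconclusive = half reach 75% but not the mean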;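 note: 0% = cytokine-treated negative control wells and 100% = positive control rescue; higher means more ATP so stronger rescue from cytokine killing; wells of about 40 µL received 100 nL stock; the first replicate is given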
T cruzi inh: blocks replication of Trypanosoma cruzi; T. cruzi beta-gal in NIH3T3, luminescence, 90 h; inhibition, % (no concentration beside the values); 300,000 compounds, 1.4% hits;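 active = mean inhibition across valid replicates above about 55%, limit read from the data; inconclusive = mean below that limit but half or more replicates reach it; inactive = mean below it, under half of replicates reach it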;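 note: signal also drops with host cell toxicity which is not excluded here; 0% = plate median of DMSO wells and 100% = zero luminescence signal; higher percent means less beta-gal luminescence so fewer parasites; stock transfer was 50 nL into about 50 µL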
Vif A3G: inhibitors of Vif binding to APOBEC3G peptide, primary screen, biochemical, TR-FRET, GST-Vif 1-94, biotin-A3G peptide, dose response retest (AID 1117319); TR-FRET GST-Vif / biotin-A3G peptide binding; higher % means a stronger effect; test concentration not given here; strong numbers were not always called active; one-dose inhibition, %; IC50 in µM for titrated hits; 260,000 compounds, 0.57% hits;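 active = above the screen mean plus three standard deviations and confirmed in dose response; inconclusive = results disagree or hit not tested in dose response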;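 note: Vif residues 1-94 fused to GST binding biotinylated APOBEC3G peptide 110-148; 0% = full assay without inhibitor and 100% = GST in place of GST-Vif; retest series ran down from 100 µM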
Ecoli rRNA inh: inhibits bacterial ribosomal RNA function over humanized ribosomes | GFP signal change (wild-type ribosome), % (concentration not given with the values) | AID 720706 | E. coli WT GFP vs humanized-ribosome RFP mutants, fluorescence, 24 h; stronger effect = lower value; DMSO median 0, no signal -100 | 350,000 compounds, 1.6% hits;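 active = significant combined selectivity score with lowered wild-type GFP, culture density cut under 30%, mutant RFP and density less affected; inactive = any of these conditions unmet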; note: one replicate is shown; some compounds called inactive have numbers as strong as hits
RanGTP-Imp inh: inhibitors of RanGTP-importin-beta interaction, primary screen, biochemical, FRET, CFP-Ran, YFP-importin-beta, homogeneous | cell-free CFP-Ran/YFP-importin-beta FRET ratio | inhibition, % (test concentration not listed) | 300,000 compounds, 1.1% hits;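 active = most replicates above 15%; inconclusive = exactly half above 15%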;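 note: 0% = DMSO wells and 100% = Ran loaded with GDP instead of GTP; wells of about 40 µL received 100 nL stock; the first replicate is given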
Ecoli rRNA inh OD600: second read-out of Ecoli rRNA inh, no call of its own (marks repeat the call); OD600 change, %; measured here: OD600 growth;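 optical density of the mix in the first replicate; 0 = DMSO median and -100 = no signal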
Ecoli rRNA inh RFP: second read-out of Ecoli rRNA inh, no call of its own (marks repeat the call); RFP signal change, %; measured here: RFP humanized mutant strains;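 first replicate; 0 = DMSO median and -100 = no signal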
* hit, by the source's call; ? = inconclusive; / = not tested or not shown; & = joins results of further samples.

SMILES	A1 inh	Calb FLC	MLL AF4-AF9 inh	Beta cell apopt	T cruzi inh	Vif A3G	Ecoli rRNA inh	Ecoli rRNA inh OD600	Ecoli rRNA inh RFP	RanGTP-Imp inh
COc1cc(C)c(S(=O)(=O)N2CCN(C)CC2)cc1C	-0.5	-5	/	-10	-7	17%	/	/	/	-0.2
CCOC(=O)c1c(C)[nH]c(N=Nc2ccc(OC)cc2)c1C	-2.3	-10	14	4	-2	-3%	-16	-5	2.1	7.2
CN(C)c1ccc(C(=S)N2CCN(c3ccccc3)CC2)cc1	-0.4	-30	/	4	-16	5%	/	/	/	-4.0
CCCCNC1=NCCS1	0.5	-12	0.0	-1	8	19%	5	4	-0.9	-2.6
CCOC(=O)C1(CCOc2ccccc2)CCN(Cc2cccc(OCCO)c2)CC1	1.1	-17	7.4	-4	8	-16%	-9	1	4.1	-1.8
O=C(CSc1ncn(-c2ccccc2)n1)c1cccs1	-4.3	1	/	-4	8	17%	/	/	/	1.3
COc1cccc(NC(=O)CC2C(=O)NC3CCCCC3N2C(=O)c2ccccc2)c1 (stereo not given)	0.9	2	-1.5	-2	19	/	7	3	3.3	4.2
O=C(OCc1ccccc1)N1CCOCCOCCN(C(=O)OCc2ccccc2)CCOCCOCC1	0.1	2	-9.8	14	17	4%	-3	-4	2.4	-1.2
COc1ccc(/C=C2\N=C(c3ccccc3)NNC2=O)cc1	0.1	-2	-1.0	-8	-4	-14%	4	-3	-1.7	2.2
CCN(CC)c1ccc(/C=C2\SC(N)=NC2=O)cc1	0.4	-1	-2.1	-9	-9	-5%	-1	-8	7.5	-52
CC1CCN(S(=O)(=O)c2ccc(NC(=O)CNC3CCCCC3)cc2)CC1	-1.1	-21	0.6	0	15	/	4	5	1.8	3.9
CC1(C)CC(=O)C(C(=O)CCCCC(=O)C2C(=O)CC(C)(C)CC2=O)C(=O)C1	-0.3	9	-4.3	2	-22	?	/	/	/	-2.6
O=C(CCl)N(C1CCCC1)C1CCS(=O)(=O)C1 (stereo not given)	0.5	2	0.9	-10	-2	/	7	12	-1.4	?
CCOc1ccc(C(=O)COC(=O)Cn2cnc3c2c(=O)n(C)c(=O)n3C)cc1	-1.0	/	-0.6	-4	/	-4%	16	15	-0.9	/
Nc1nc(N2CCOCC2)nc(N(c2ccccc2)c2ccccc2)n1	-0.5	-1	0.2	/	8	-6%	1	7	-1.1	21*
O=C(CSc1nnc(NC(=O)c2c(F)cccc2F)s1)NCC1CCCO1 (stereo not given)	-0.5	4	-30	/	-11	12%	5	13	0.8	-0.2
O=C(CN(Cc1cccs1)C(=O)CNS(=O)(=O)c1ccccc1)NC1CCCC1	-0.2	-4	-5.5	-3	5	0%	3	4	-1.6	2.3
CC[n+]1ccc(C)c2cc(S(=O)C(F)(F)F)ccc21 (stereo not given)	0.3	5	/	1	27	8.8µM*	/	/	/	4.9
COc1ccc(S(=O)(=O)Nc2ccc3c(c2)n(C)c(=O)n3C)cc1C	0.4	20	2.3	-2	4	/	-4	-7	0.8	?
CCC(C)NC(=O)c1ccc(CS(=O)(=O)Cc2ccc(Cl)cc2)o1 (stereo not given)	-0.9	-17	/	-4	6	0%	/	/	/	2.6
CCOc1ccc(CNC(=O)CCCc2cn(C)c3ccccc23)cc1OC	0.5	-3	3.0	-1	9	-3%	6	2	1.6	3.5
COC(=O)c1cc(NC(=O)Cc2ccc(OC)cc2)cc(C(=O)OC)c1	0.2	-8	/	3	-13	3%	/	/	/	-1.7
Cc1ccc2[nH]c(=O)c(Cc3ccccc3)c(O)c2c1	0.2	24	-17	-4	-7	-1%	7	0	-0.1	-4.3
O=S(=O)(NC1CCC(NS(=O)(=O)c2c(F)cccc2F)CC1)c1ccc2c(c1)OCCO2 (stereo not given)	0.4	/	1.7	-1	/	/	-1	4	4.9	/
Cc1ccc(Nc2nc(NCCCN3CCOCC3)nc(N)c2[N+](=O)[O-])cc1	0.1	7	6.1	0	-13	4%	8	8	0.4	3.9
CCC(C(=O)OC)n1cnc2c(nnn2-c2ccc(F)cc2)c1=O (stereo not given)	0.5	2	2.0	-2	-1	/	0	2	-2.4	1.8
CC(C)[C@H](NC(=O)OC(C)(C)C)C(=O)N/N=C/c1cccc2nccnc12	0.6	-9	-6.7	-2	11	3%	4	8	0.3	3.6
CCSc1nnc(SCC(=O)N2CCN(C(=O)c3ccco3)CC2)s1	0.4	7	3.7	-1	-2	/	3	0	-0.7	-0.5
CCCC(=O)Nc1c(-c2ccccc2)c(=O)c(C)nn1-c1ccccc1	-0.2	0	0.0	-2	-10	/	5	6	0.7	-2.5
COc1ccc(CCNC(=O)C2CCCN(S(=O)(=O)c3cccc4nonc34)C2)cc1OC (stereo not given)	-0.2	1	/	0	17	-5%&-2%	/	/	/	-1.2
O=C(Nc1nccs1)C1CCCN1/C=C/C(=O)C(F)(F)F (stereo not given)	-0.7	6	-1.8	/	-6	1%	16	13	-0.8	4.4
CCCC(c1nnnn1Cc1ccco1)N1CCN(C2CCCC2)CC1 (stereo not given)	0.6	-1	/	-4	-9	19%	/	/	/	-1.2
COc1ccc(CNC(=O)Cn2cc(C(F)(F)F)ccc2=O)cc1OC	?	3	-9.0	0	-3	-1%	3	2	6.0	3.0
CCN1CCN(CC(=O)N2N=CCC2c2ccccc2)CC1 (stereo not given)	0.3	-5	-2.2	-1	-2	5%	/	/	/	0.3
CC(C)C[C@H](NC(=O)c1[nH]cnc1C(=O)N[C@@H](Cc1ccccc1)C(=O)OCc1ccccc1)C(=O)OC(C)(C)C	-0.5	6	1.7	1	11	/	7	7	-6.4	-1.6
Cc1ccc(C(=O)N(CC(=O)NC2CCCC2)c2ccc(F)cc2)s1	0.0	34	-1.7	10	-1	/	-3	-9	-0.1	4.4
COCC1CCN(C(=O)c2ccc3oc(Cc4ccc(Cl)cc4)nc3c2)C1 (stereo not given)	0.9	7	-3.7	0	-3	/	-16	-9	0.0	-0.1
COc1ccc(C(=O)Nc2ccc(Oc3ncnc4sc(-c5ccccc5)cc34)cc2)cc1OC	-0.2	5	/	4	-9	/	/	/	/	-3.5
Cc1csc(NC(=O)CSc2nnc(-c3ccoc3C)n2Cc2ccco2)n1	-0.2	-7	/	1	12	14%	/	/	/	-2.9
Cc1cc(=O)[nH]c(-c2ccccc2O)n1	0.5	0	-0.1	6	-12	-1%	-2	14	0.1	2.5
CCN(CC)CCNC(=O)c1ccc(CS(=O)(=O)c2ccc(Br)cc2)o1	-1.3	-5	-3.6	-4	-16	15%	16	9	-1.8	0.8
Cc1nnc(SCC(N)=O)n1CCc1ccccc1	0.8	-10	/	1	-6	20%	/	/	/	-0.3
COc1ccc(/C=N/NC(=O)c2ccc(CSc3nc(C)cc(C)n3)cc2)c(OC)c1OC	0.9	-7	0.9	0	-3	6%	/	/	/	2.0
CN(C)c1ccc(CNn2cnnc2)cc1	1.0	1	/	-2	0	1%	13	8	-3.1	0.8
Cc1ccc(S(=O)(=O)N2CCOCC2)cc1NC(=O)Cn1ccsc1=N	-0.6	-5	/	-2	-14	4%	/	/	/	3.3
Cc1ccc2c(c1)[nH]c1c(=O)n(CCCN3CCOCC3)cnc12	0.3	11	/	-17	-10	2%	/	/	/	-2.1
CC(=O)CC[C@@H](C)O[C@@H]1OC(C)[C@H](O)CC1O (stereo not given in full)	1.0	9	-1.3	/	-19	/	6	19	15	1.4
CC(C)CNC(=O)c1ccccc1NC(=O)CN(c1ccccc1)S(=O)(=O)N(C)C	0.0	2	-2.8	-5	18	-9%	36	21	3.5	?
COc1ccc(-c2cnn(C3CCS(=O)(=O)C3)c2N)cc1 (stereo not given)	-0.5	-5	/	-3	-4	2%	/	/	/	1.1
CCOC(=O)C1CCN(c2nc3ccccc3nc2C(C#N)C(=O)OC(C)COC)CC1 (stereo not given)	-1.4	-2	/	3	15	-1%	/	/	/	5.7
Cc1ccnc(NC(=O)c2ccc([N+](=O)[O-])s2)c1	0.1	20	1.6	82*	55*	/	-9	14	-1.0	-2.5
COc1ccccc1-c1cn[nH]c1-c1ccc(OCc2ccccc2F)cc1O	-0.4	-5	?	8	13	/	-39	-58	-1.5	1.4
C=CCN1C(=O)/C(=C\c2ccc(Cl)cc2)N=C1SCC(=O)NCCC	0.7	6	/	-3	-16	-5%	/	/	/	-6.2
COc1cc(CN2CCNC(=O)C2CC(=O)N(C)Cc2cccnc2)cc(OC)c1 (stereo not given)	0.1	-5	/	-3	-6	8%	/	/	/	1.7
O=C(c1nc2ccc(Cl)cn2c1CN1CCCC1)N1CCc2ccccc2C1	0.1	-5	1.0	3	1	/	3	7	6.1	8.4
Cc1c(N=Cc2ccncc2)c(=O)n(-c2ccccc2)n1C	0.1	13	/	/	-6	-3%	/	/	/	-1.7
N/C(=N\OC(=O)c1cc(Br)ccc1Cl)c1cccnc1	0.2	-14	-3.6	-1	-7	-17%	6	6	0.9	5.7
CC(NC(=O)c1ccco1)C(=O)N1CCN(C(c2ccccc2)c2ccccc2)CC1 (stereo not given)	-0.6	-9	2.4	-10	-7	/	-5	-11	-3.3	-3.0
Cc1ccc(OC(=O)Nc2ccccc2)cc1	-6.4	-36	-12	-6	-15	1%	2	-2	-0.3	-3.0
CCN(CC)S(=O)(=O)c1cccc(C(=O)N2CCCc3ccccc32)c1	0.2	4	2.5	-4	-1	/	-25	-38	-4.8	1.6

(continued)
SMILES	A1 inh	Calb FLC	MLL AF4-AF9 inh	Beta cell apopt	T cruzi inh	Vif A3G	Ecoli rRNA inh	Ecoli rRNA inh OD600	Ecoli rRNA inh RFP	RanGTP-Imp inh
COCCN(C(=O)CCC(=O)Nc1ccccn1)C(C(=O)NC1CCCC1)c1ccc(OC)cc1 (stereo not given)	-0.5	-3	/	-6	4	?	/	/	/	-1.5
Cc1nn(Cc2ccccc2)c(Cl)c1/C=N/NC(=O)CNc1cccc(C(F)(F)F)c1	0.2	-3	/	-2	23	21%	/	/	/	4.5
CCCC(=O)NC(c1ccc(OCC)cc1)c1ccc(OC)c(OC)c1 (stereo not given)	0.6	12	-0.8	-5	8	-7%	15	14	6.0	0.8
COc1ccc(-c2cc(C)no2)cc1S(=O)(=O)Nc1ccc(NC(C)=O)cc1	-0.3	-5	-0.2	-3	-5	/	-2	0	0.1	5.2
COc1ccc(S(=O)(=O)N(CCC(=O)O)Cc2ccccc2)cc1	1.5	-20	-0.3	-4	-2	-4%	-13	8	-0.4	2.9
O=C(NCCCCO)C(F)(F)C(F)(F)C(F)(F)C(=O)NCCCCO	0.2	-5	/	-11	-6	3%	/	/	/	-0.6
CCN(C1CCS(=O)(=O)C1)S(=O)(=O)c1cccc([N+](=O)[O-])c1 (stereo not given)	-0.6	-2	-0.6	-6	4	22%	16	18	0.0	-4.5
Cc1ccc([N+](=O)[O-])c(OCCN2CCC(Cc3ccccc3)CC2)c1	0.3	?	14	4	41	-8%	-31	-43	-2.4	-1.6

Screens (PubChem BioAssay)

These rows are one share of the data; count on the stated rates, not on these rows.
